High-throughput results as filed in PubChem BioAssay.
OX1R antag = blocks the human orexin 1 receptor. inhibition, % at 5 µM. actives 0.43% (n = 330,000). CHO/OX1R cells, Fluo-8 calcium fluorescence, orexin A;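 active = inhibition above its plate's threshold, mean inhibition of all tested compounds on the plate plus 3 SD, cut at about 37% in these data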;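 also: 0% = orexin A challenge wells and 100% = SB-334867-A antagonist wells; not every result past the cut was called active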
Target sequence (O43613 whole entry, looked up): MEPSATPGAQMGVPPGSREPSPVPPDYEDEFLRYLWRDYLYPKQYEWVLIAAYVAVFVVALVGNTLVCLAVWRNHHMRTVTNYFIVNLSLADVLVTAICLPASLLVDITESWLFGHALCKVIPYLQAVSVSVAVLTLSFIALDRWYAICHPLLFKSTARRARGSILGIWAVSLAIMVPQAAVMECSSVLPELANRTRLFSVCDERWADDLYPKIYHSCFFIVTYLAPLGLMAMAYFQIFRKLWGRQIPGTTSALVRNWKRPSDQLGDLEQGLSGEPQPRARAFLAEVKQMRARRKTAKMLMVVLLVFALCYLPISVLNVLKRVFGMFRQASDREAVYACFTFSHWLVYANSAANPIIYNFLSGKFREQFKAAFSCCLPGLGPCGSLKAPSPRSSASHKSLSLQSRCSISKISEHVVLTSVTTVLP
* = called active by the depositor. A portion of the library, and most or all hits are left out here.

SMILES	OX1R antag
C[C@H](NC(=O)c1nc[nH]c1C(=O)NCc1ccccc1)C(=O)OC(C)(C)C	-36
CCOc1ccc(CN2C(=O)c3ccccc3C2C(=O)NCC2CCCO2)cc1 (centres undefined)	-22
COc1ccc2c(CC(=O)N[C@@H](Cc3ccccc3)C(=O)O)cc(=O)oc2c1	4
NS(=O)(=O)c1cccc(C(=O)NC2CCSc3ccccc32)c1 (centres undefined)	-17
Cn1c(=O)c2c(ncn2Cc2ccc(Cl)c(Cl)c2)n(C)c1=O	-2
CCOC(=O)N1CCN(C(=O)CN(C2CCCCC2)S(=O)(=O)c2ccc(F)cc2)CC1	-14
COc1ccc(C2c3ccsc3CCN2C(=O)NC(C)(C)C)cc1 (centres undefined)	-18
COCCCNCCOCCOc1ccc(C)cc1Br	-17
O=S(=O)(c1ccc(S(=O)(=O)N2CCCC2)cc1)N1CCCCCC1	1
CCC1=C(OC(=O)N(CC)CC)N2C(=O)OC(=NCC(=O)OC)[C@]2(Cc2ccccc2)[C@H]2C1=CC[C@H]1C(=O)N(c3ccccc3)C(=O)[C@H]12	-25
O=C1NC(=O)c2cc(NC(=O)C3COc4ccccc4O3)ccc21 (centres undefined)	-10
CCOc1ccc(S(=O)(=O)N2CCC(C(=O)NC3CC3)CC2)cc1Cl	-8
Cc1ccc(C2CC(c3ccc(Cl)cc3)=NNC2=O)cc1 (centres undefined)	-28
COc1cccc(CN(C)C(=O)c2ccc3c(=O)n4c(nc3c2)CCC4)c1	-23
Cc1nc(-c2ccc(Cl)cc2)sc1C1(C)CC(c2ccncc2)=NO1 (centres undefined)	-13
CCN(CC)CCCN(Cc1cc2cc3c(cc2[nH]c1=O)OCO3)C(=S)NC	-6
O=C1c2c(O)cc(O)cc2O[C@H](c2ccc(O)c(O)c2)[C@@H]1O	-7
Cn1cc(Br)c(C(=O)n2cc(Br)cn2)n1	-19
CCC(=O)N1CCN(c2ccccc2NC(=O)Cc2ccc(Cl)cc2)CC1	-39
Cc1cc2oc(=O)cc(CN3CCN(Cc4ccccc4)CC3)c2cc1O	-29
COC(=O)c1ccccc1NC(=O)CSc1ncccn1	-12
CCOC(=O)N1CCC(N2CCN(Cc3ccccc3)C(CCO)C2)CC1 (centres undefined)	-18
Nc1nc2nccc(-c3ccccn3)n2n1	-14
C/C(=N\Nc1cc(Cl)nc(C)n1)c1ccccc1	17
CC(=O)c1cc2c(cc1NC(=O)CN1CCCCCC1)OCO2	-30
Cc1cc(C)cc(C(=O)Nc2ccc(N3CCCC3)cc2)c1	-35
c1ccc(-c2cc(N3CCCCC3)ncn2)cc1	-15
CCOC(=O)c1csc(NC(=O)c2cccs2)n1	-3
CC1CN(CC(=O)Nc2cc(S(=O)(=O)N3CCCC3)ccc2Cl)CC(C)O1 (centres undefined)	-14
COc1cccc(-c2cc(C(=O)NC3CCCC3)c3ccccc3n2)c1	-21
C=CCSc1nc2c(c(=O)[nH]c(=O)n2C)n1Cc1ccccc1	-18
CC(C)c1[nH]nc2c1C(c1cccc(OC(=O)N3CCOCC3)c1)C(C#N)=C(N)O2 (centres undefined)	-12
CC1(C)Cc2nc(-c3ccccc3)n3cnnc3c2CO1	-9
CS(=O)(=O)c1ccccc1-c1nnc(NC(=O)c2cccc(N3C(=O)CCC3=O)c2)o1	-1
O=C1CCC(C(=O)N(CCO)Cc2ccccc2)CN1CCCN1CCOCC1 (centres undefined)	-1
Nc1nc(SCC(=O)NC2CCCCC2)[nH]c(=O)c1-c1ccccc1	-10

Random excerpt: 2 compounds from above, in no set order.
SMILES	OX1R antag
CC1(C)Cc2nc(-c3ccccc3)n3cnnc3c2CO1	-9
CCOC(=O)c1csc(NC(=O)c2cccs2)n1	-3

Other entries
SMILES	OX1R antag
c1ccc(Cn2nnc3c(N4CCC5(CC4)OCCO5)ncnc32)cc1	-9
COC(=O)CN(C)C(=O)c1cccc(OC2CCN(S(=O)(=O)N(C)C)CC2)c1	-20
COCCNS(=O)(=O)c1cc(-c2nn(C)c(=O)c3ccccc23)ccc1C	-21
Cc1n[nH]c(C)c1CN(C)C(=O)C1CCC(=O)N(CCc2cccc(F)c2)C1 (centres undefined)	-8
CC(=O)N1CCN(c2ccc(NC(=O)c3ccc(Cl)c([N+](=O)[O-])c3)cc2)CC1	-14
COc1ccc(-n2c(SC3CCOC3=O)nc3ccccc32)cc1 (centres undefined)	-28
CC(NC(=O)CCc1c[nH]c2ccccc12)c1ccccc1 (centres undefined)	-9
CCN(CC)CCCNc1oc(-c2cccc(Cl)c2)nc1C#N	-23
Cc1ccc(NC(=O)CCC(=O)n2nc(C)cc2C)c(C)c1	3
Cc1nc(N)ncc1-c1ccc2c(c1)OCO2	-14
COc1cc(/C=C(\C#N)C(=O)NCC2CCCO2)ccc1OCC(=O)O (centres undefined)	3
COC(=O)CN1C(=S)N(c2ccc(Cl)cc2)C(=O)C1CC(=O)Nc1ccc(Cl)cc1 (centres undefined)	1
CC1CCN(CCOCCOc2ccc(Cl)cc2Br)CC1	-9
COc1ccc(Cl)cc1S(=O)(=O)NCc1cccs1	-2
CCOc1ccc(CCNC(=O)COC(=O)c2ccc(S(C)(=O)=O)cc2)cc1OCC	-37
O=C(COc1ccc2ccccc2c1)Nc1cccc2c1C(=O)NC2=O	-5
CCC(=O)c1ccc(OCC(=O)N(C)CC(=O)Nc2cccc(F)c2)cc1	-22
Cc1ccc(CN(Cc2ccco2)C(=O)c2ccco2)cc1	-27
C/C(=N\NC(=O)Cc1ccccc1)c1cccs1	4
CC(=O)Nc1cccc(-c2nc3ccccc3c(=O)o2)c1	2
Cc1ccc(C)c(-n2c(SCC(=O)Nc3nonc3C)nnc2-c2ccoc2C)c1	-26
Cc1ccccc1NC(=O)c1c(Cl)nc(C)c(Cl)c1C	-17
Cc1cn(CC2COC(C)(C)O2)c(=O)[nH]c1=O (centres undefined)	-7
O=C(CCNc1ccc(F)cc1)c1cc2ccccc2o1	-20
O=C1CCCCN1CCC(=O)N1CCCC(Nc2ccc(F)c(F)c2)C1 (centres undefined)	-4
COc1ccc(/C=C(\NC(=O)c2ccc([N+](=O)[O-])cc2)C(=O)NCCCN2CCOCC2)cc1	-13
Cc1cccc(NC(=O)Nc2ccc(Br)cc2)n1	-14
COc1ccccc1NC(=O)CC1S/C(=N/N=C(\C)C2CCCCC2)NC1=O (centres undefined)	-12
CCOCCCNC(=O)/C(C#N)=C/c1ccc(C)o1	-14
C=CCNC(=S)N(Cc1ccccc1)Cc1ccccc1	-24
O=C(Nc1cccc(C(=O)N2CCOCC2)c1)c1cccnc1	-7
Cc1ccc(-n2ncc(C#N)c2/N=C/N2CCCCCC2)cc1	-8
CCc1ccc(OCC(O)CN2CCCC2)cc1 (centres undefined)	-15
CC1=NNC(=O)C1CCC(=O)N/N=C/C=C/c1ccccc1 (centres undefined)	4
Cc1ccc(N2C(=O)C3C(c4ccccc4)N4CCCN4C3(C)C2=O)cc1 (centres undefined)	-14
N#Cc1c2n(c(=S)n(-c3ccccn3)c1=O)CCCCC2	-19
COc1ccc(/C=C2\SC(=O)N(CC(=O)NCCC(C)C)C2=O)cc1OC	-28
COc1ccc(-c2nc(C(N)=O)c3[nH]c(=O)n(-c4cccc(C)c4)c3n2)c(OC)c1	-18
COc1ccc(C(NC(=O)c2ccc(F)cc2)c2ccccc2)cc1 (centres undefined)	-16
COC1(OC)N=C(N)C2(C#N)C(c3ccc(F)cc3)C12C#N (centres undefined)	-23
C#CCOCCOCCOCCNc1nc(N2CCN(C(=O)[C@H](CCC(=O)O)n3cc(C(N)Cc4ccc(O)cc4)nn3)CC2)nc(N2CCN(C(=O)[C@H](CCC(=O)O)n3cc(C(N)[C@H](C)CC)nn3)CC2)n1 (some centres undefined)	-12
CCN(CC)S(=O)(=O)c1cc(NC(=O)CCNC(=O)c2ccco2)ccc1C	1
CC(C)Cn1cc(C(=O)NCC2CCCO2)c2c3ccccc3n(C)c2c1=O (centres undefined)	-34
CCOC(=O)C1CCN(C(=O)Nc2ccc(Cl)cc2Cl)CC1	-4
CCCOc1ccc(C2(C(=O)O)CCCC2)cc1	-7
CCOC(=O)CSc1ccc2nnc(CCNS(=O)(=O)c3ccccc3)n2n1	-18
O=C(Nc1ccccc1)Nc1nnc(-c2cccs2)s1	-13
COc1ccc(Cc2[nH]n3c(=O)c(Cl)c(C)nc3c2-c2ccccc2)cc1	-3
COc1ccccc1NS(=O)(=O)c1ccc2oc(=S)[nH]c2c1	-11
Brc1ccccc1-c1nnc2sc(-c3ccc4c(c3)OCCO4)nn12	1
COC(=O)C1=C[C@@H](C(=O)OC)[C@@H]2C3=C(C(=O)[C@]2(C)NC(=O)c2ccccc2)[C@H](C)n2c(=O)n(C)c(=O)n2[C@@H]3C1	-7
O=S(=O)(c1ccc2ccccc2c1)N1CCN(C2Cc3ccccc3C2)CC1	-39
CC(C)(C)OC(=O)N1CCCC1C(=O)O (centres undefined)	-9
O=C(NCC(=O)N(c1cccc(F)c1)C(C(=O)NCC1CCCO1)c1ccccc1)c1ccco1 (centres undefined)	-19
c1ccc2oc(-c3[nH]ncc3CN(Cc3ccncc3)CC3CCCO3)cc2c1 (centres undefined)	-8
COc1ccc(Nc2ccc(S(=O)(=O)N3CCCCC3)cc2[N+](=O)[O-])cc1	-12
Cc1ccccc1NC(=O)CSc1ccc(-c2ccccn2)nn1	-23
CCOc1cccc2sc(N(CCCN(C)C)C(=O)c3ccc(S(=O)(=O)N(C)CC4CCCO4)cc3)nc12 (centres undefined)	-26
Cc1c(C)n2c(SCC(=O)N3CCOCC3)nnc2[nH]c1=O	-13
Cc1noc(C)c1C(=O)Nc1nc(-c2ccccc2Cl)cs1	-22

(continued)
SMILES	OX1R antag
COc1ccc(Cn2c(C(F)(F)F)ccc(C(N)=O)c2=O)cc1	-18
CCOC(=O)c1ccc(Oc2nc(N(C)C)nc(N(C)C)n2)cc1	-45
O=C(c1ccccc1)N1CCc2[nH]nc(-c3ccccc3)c2C1	-17
O=C(CN1C(=O)CC(c2ccccc2)=Nc2ccccc21)NCc1ccccc1	-3
Cc1ccc(S(=O)(=O)N2CCOCC2)cc1NC(=O)COC(=O)CSc1ccc(Br)cc1C	-9
O=C(COC(=O)/C=C/c1ccccc1[N+](=O)[O-])NCC1CCCO1 (centres undefined)	-23
Cn1cnc(S(=O)(=O)NCc2cccs2)c1	-6
COc1cccc(NC(=S)NN=C2CCC(C(C)(C)C)CC2)c1 (centres undefined)	-19
CC(=O)c1ccccc1OC(=O)c1ccc(-c2ccccc2)cc1	-22
COc1cccc(/C=C2\Oc3cc(OCC(=O)N4CCCCC4)ccc3C2=O)c1OC	-16
CN(C)S(=O)(=O)c1ccc(NC(=O)COC(=O)Cn2[nH]c(=O)c3ccccc3c2=O)cc1	-2
Cc1cc2c3c(c1)C1(C(=O)N3C(C)(C)CC2C)C(C#N)=C(N)Oc2cc(O)ccc21 (centres undefined)	-16
Cc1cc(C(=O)Nc2c(C)nn(Cc3ccccc3Cl)c2C)no1	-22
O=C(c1ccccc1F)N1CCN(S(=O)(=O)c2ccc(S(=O)(=O)N3CCCCC3)cc2)CC1	-5
COc1cccc(C(=O)NCCS(=O)(=O)N2CCC3(CC2)OCCO3)c1	-2
CCCCNC(=O)Nc1nc2ccc(CC)cc2s1	-19
C/C(=C\C(=O)c1ccccc1)NCc1ccc(F)cc1	-31
c1ccc(-c2ccnc3nc(-n4cccc4)nn23)cc1	-7
O=C(CC1CC2CCC1C2)Nc1nc(-c2ccccn2)cs1 (centres undefined)	-11
COCc1cnc(C)nc1N	-18
N#CCSc1nnc(COc2ccc3ccccc3c2)o1	-11
COCCNC(=O)c1onc(CSc2cc(C)cc(C)c2)c1C(=O)O	-13
CN(C)Cc1c(O)ccc2c1O/C(=C\C=C\c1ccccc1)C2=O	-3
O=S(=O)(Cc1ccccc1Cl)N1CCN(Cc2ccc3c(c2)OCO3)CC1	-14
O=C(O)c1cc(-c2cccc([N+](=O)[O-])c2)n[nH]1	-9
CCOC(=O)N1CCC(Nc2c(NCCCOC)c(=O)c2=O)CC1	-9
COc1ccccc1CNC(=O)COC(=O)Cc1ccc(Cl)cc1	-19
CN(C)c1cccc(C(=O)N/N=C/c2ccoc2)c1	-29
S=C(c1ccc(-c2cccc(Cl)c2)o1)N1CCOCC1	-20

In the list so far, these have an NH in an aromatic ring:
SMILES	OX1R antag
C[C@H](NC(=O)c1nc[nH]c1C(=O)NCc1ccccc1)C(=O)OC(C)(C)C	-36
CCN(CC)CCCN(Cc1cc2cc3c(cc2[nH]c1=O)OCO3)C(=S)NC	-6
C=CCSc1nc2c(c(=O)[nH]c(=O)n2C)n1Cc1ccccc1	-18
CC(C)c1[nH]nc2c1C(c1cccc(OC(=O)N3CCOCC3)c1)C(C#N)=C(N)O2 (centres undefined)	-12
Nc1nc(SCC(=O)NC2CCCCC2)[nH]c(=O)c1-c1ccccc1	-10
Cc1n[nH]c(C)c1CN(C)C(=O)C1CCC(=O)N(CCc2cccc(F)c2)C1 (centres undefined)	-8
CC(NC(=O)CCc1c[nH]c2ccccc12)c1ccccc1 (centres undefined)	-9
Cc1cn(CC2COC(C)(C)O2)c(=O)[nH]c1=O (centres undefined)	-7
COc1ccc(-c2nc(C(N)=O)c3[nH]c(=O)n(-c4cccc(C)c4)c3n2)c(OC)c1	-18
COc1ccc(Cc2[nH]n3c(=O)c(Cl)c(C)nc3c2-c2ccccc2)cc1	-3
COc1ccccc1NS(=O)(=O)c1ccc2oc(=S)[nH]c2c1	-11
c1ccc2oc(-c3[nH]ncc3CN(Cc3ccncc3)CC3CCCO3)cc2c1 (centres undefined)	-8
Cc1c(C)n2c(SCC(=O)N3CCOCC3)nnc2[nH]c1=O	-13
O=C(c1ccccc1)N1CCc2[nH]nc(-c3ccccc3)c2C1	-17
CN(C)S(=O)(=O)c1ccc(NC(=O)COC(=O)Cn2[nH]c(=O)c3ccccc3c2=O)cc1	-2
O=C(O)c1cc(-c2cccc([N+](=O)[O-])c2)n[nH]1	-9
